Screening data from PubChem BioAssay.
2A StopGo: lowers the luciferase signal of an FMDV 2A StopGo reporter; human cells with a luciferase reporter of 2A StopGo recoding; control for the full effect not named in the record; Potency, µM (titrated, usually from 57.9 µM), inactives show at the top dose signal change, negative = less light; actives 1.2% (n = 410,000); active = well fitted falling curve with a large enough effect; inconclusive = small, poorly fitted or top-dose-only effect; inactive = no such curve, though single readings can be large or run the other way; tested in HEK293T cells; further: on the % scale 0 is the no-effect control and ±100 the full control effect; nearly all actives have a fitted effect of over 45% in size; luciferase light after 4 h
Marburg entry inh: blocks Marburg virus binding to or entry into cells; Marburg virus pseudotyped entry inhibition, cell reporter; control for the full effect not named in the record; about a third of the inactives were read at about 46 µM; Potency, µM (titrated, usually from 37.8 µM), for the others: top-dose activity change, negative = inhibition, usual class: inhibitors; actives 1.8% (n = 300,000); active = well fitted inhibition curve with a large enough effect; inconclusive = small, poorly fitted or top-dose-only effect, or effect the other way; inactive = flat fitted curve, though single readings scatter; tested in HEK293 cells; about a fifth of its hits are not listed in these tables; further: on the % scale 0 is the no-effect control and ±100 the full control effect; luciferase read-out
SARS PLP yeast: blocks SARS-CoV papain-like protease in a yeast assay; S. cerevisiae expressing SARS-CoV PLpro, growth rescue; control for the full effect not named in the record; Potency, µM (series often up to 32.9 µM), for inactives: top-dose activity, positive = growth rescue; actives 0.19% (n = 330,000); active means well fitted rising curve with a large enough effect; inconclusive means small, poorly fitted or top-dose-only effect; inactive means no such curve, though single readings can be large or run the other way; further: 0% is about no effect; nearly all actives have a fitted effect of over 55% in size; growth read by luminescence after 48 h
Cruzain noTriton: inhibitors of Trypanosoma cruzi cruzain without detergent. AID 1476. Potency, µM, inactives show max response, negative = inhibition, actives largely listed as inhibitors. actives 2.3% (n = 200,000). P25779. purified cruzain, Z-FR-AMC fluorescence, no detergent;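 further: plate controls were enzyme without inhibitor for no effect and buffer without enzyme for full effect; nearly all actives have a fitted effect of over 40% in size; top concentration of the series not given in the record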
Target sequence (P25779 123-467 limits assumed): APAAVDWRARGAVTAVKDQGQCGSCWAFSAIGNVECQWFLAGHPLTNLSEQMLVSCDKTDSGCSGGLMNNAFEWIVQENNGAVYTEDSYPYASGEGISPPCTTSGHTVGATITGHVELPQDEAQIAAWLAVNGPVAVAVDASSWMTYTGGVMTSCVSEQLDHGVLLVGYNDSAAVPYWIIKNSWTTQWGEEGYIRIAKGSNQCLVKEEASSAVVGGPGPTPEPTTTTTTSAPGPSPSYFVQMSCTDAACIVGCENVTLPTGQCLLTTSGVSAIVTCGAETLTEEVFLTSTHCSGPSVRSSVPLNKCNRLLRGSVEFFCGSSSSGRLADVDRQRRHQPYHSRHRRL
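Purified cruzain at 1.5 nM, pre-incubated 15 min with compound at room temperature in 100 mM sodium acetate pH 5.5, 5 mM DTT, 0.00005% Triton X-100. Reaction started with 2 uM Z-FR-AMC; AMC fluorescence increase over 60 s gives rate.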
RE007 growth inh: less growth of the S. pombe RE007 Vpr strain | S. pombe RE007 Vpr strain, BacTiter-Glo ATP luminescence, 24 h; control for the full effect not named in the record | Potency, µM (doses to about 92.2 µM), inactives show at the highest dose activity change, negative = less growth | actives 0.21% (n = 360,000) | AID 651644; active = well fitted falling curve with a large enough effect; inconclusive = small, poorly fitted or top-dose-only effect; inactive = no such curve, though single readings can be large or run the other way;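 further: on the % scale 0 is the no-effect control and ±100 the full control effect; nearly all actives have a fitted effect of over 50% in size; the assay follows cell death caused by Vpr and the record does not say whether a fall means rescue or toxicity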
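Fission yeast RE007 carrying one integrated HIV-1 vpr copy, seeded at OD 0.01 in PMG+AL medium with 23 nL pinned compound. Grown 24 h at 30 degrees; viability read by BacTiter-Glo luminescence after 5 min.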
NS1 inh: blocks influenza NS1 protein function. S. cerevisiae slowed by influenza A NS1, growth recovery by OD600. Potency, µM (highest dose often 46.1 µM), for inactives: at the highest dose activity, positive = more growth. actives 0.4% (n = 270,000); active means well fitted rising curve with a large enough effect; inconclusive means small, poorly fitted or top-dose-only effect; inactive means no such curve, though single readings can be large or run the other way; further: nearly all actives have a fitted effect of over 50% in size
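In this qHTS, NS1 from influenza A is expressed in budding yeast, where it slows growth. Cells are switched from glucose to 2% galactose medium (pH 6.0, -URA), treated with compound, and growth recovery is read at OD600.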
LASV entry inh: blocks Lassa virus binding to or entry into cells | Lassa virus pseudotype entry inhibition, cell reporter; control for the full effect not named in the record | Potency, µM (doses to about 37.9 µM), for inactives: at the highest dose activity change, negative = inhibition, usual class: inhibitors | actives 1.2% (n = 300,000) | AID 540256; active means well fitted inhibition curve with a large enough effect; inconclusive means small, poorly fitted or top-dose-only effect, or effect the other way; inactive means flat fitted curve, though single readings scatter; tested in HEK293 cells; further: on the % scale 0 is the no-effect control and ±100 the full control effect; nearly all actives have a fitted effect of over 50% in size; luciferase read-out
Cruzain Triton: inhibitors of Trypanosoma cruzi cruzain with detergent. P25779. purified cruzain, Z-FR-AMC fluorescence, 0.01% Triton. Potency, µM, for inactives: max response, negative = inhibition, most hits filed as inhibitors. actives 0.43% (n = 200,000). AID 1478;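 further: plate controls were neutral wells for no effect and buffer without enzyme for full effect; nearly all actives have a fitted effect of over 40% in size; top concentration of the series not given in the record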
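Read-out: AMC fluorescence (360 nm excitation, 450 nm emission), four reads over 2 min, first-to-third difference used. Conditions: cruzain 1.5 nM, Z-FR-AMC 2 uM, pH 5.5 acetate, 5 mM DTT, 0.01% Triton X-100.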
* = called active by the depositor; ? = inconclusive; nt = no result given; & = joins results of further samples; [ ] = another dose, or the depositor's remark. Unless noted, the call rests on the fitted dose curve; in most records, active means well fitted curve in the direction sought with a large enough effect; inconclusive means small, poorly fitted or top-dose-only effect, or another doubt; inactive means no such curve, though single readings can be large; an effect the other way counts as inactive or inconclusive. Potency means the concentration at half of the fitted maximal effect.

# | mol | Marburg entry inh | Cruzain Triton | LASV entry inh | Cruzain noTriton | 2A StopGo | RE007 growth inh | SARS PLP yeast | NS1 inh
1 | c1ccc(N2CCN(c3cnc4ccccc4n3)CC2)cc1 | ? | -3.1% | ? | -16% | -8% | 0% | -36% | -68%
2 | COc1ccc(CN2C(=O)c3ccccc3C2=O)cc1C(=O)OC(C)C(=O)NC(N)=O (stereo unspecified) | 1% | -5.1% | 9% | 1% | 0% | 16% | -4% | -3%
3 | Cc1c(O)c(S(=O)(=O)c2ccccc2)c(=O)n(-c2ccccc2)c1-c1ccccc1 | ? | -4.0% | 0% | -5% | 27% | 16% | 4% | 26%
4 | CCCC(=O)N1CCc2cc(OC)c(OC)cc2C1COc1ccccc1OC (stereo unspecified) | nt | -1.5% | 5%[46.1 µM] | 10% | -21%&-2% | 11% | 0% | -4%
5 | CC(=O)c1sc(-c2ccccc2)cc1N | 2%[46.1 µM] | nt | ? | nt | 13% | -16% | -2% | -4%
6 | O=C(C1CCN(S(=O)(=O)c2cnc[nH]2)CC1)N1CCn2c1nc1ccccc12 | ? | 3.4% | 0% | -11% | 13% | -6% | 2% | -4%
7 | O=C(CN1C(=O)CSC1=O)NCc1ccccc1 | ? | 3.2% | 10% | -6% | 23% | 0% | 4% | 0%
8 | C[C@@H](C(=O)N1CCN(C(=O)OC(C)(C)C)CC1)n1cc(CCCN=C(NC(=O)OC(C)(C)C)NC(=O)OC(C)(C)C)nn1 | nt | nt | nt | nt | -19% | 6% | 2% | 1%
9 | CCOc1cc(N2CCOCC2)c(OCC)cc1NS(=O)(=O)c1cc(NC(C)=O)ccc1OC | -10%[46.1 µM] | nt | -12% | nt | -7% | 33% | 0% | 4%
10 | CCOC(=O)c1cnn(-c2ncnc3sc(C)c(C)c23)c1N | 4% | 1.0% | 8% | 1% | ? | -11% | -1% | -2%
11 | CCOC(=O)c1cnc(-n2cc(C)cn2)nc1NCc1ccc2c(c1)OCO2 | ? | -2.0% | -1% | 29% | -3% | 11% | 11% | -32%
12 | O=C(Nc1ccc(Cc2ccncc2)cc1)c1ccco1 | -9% | -2.0% | -2% | 3% | 13% | -23% | 0% | -14%

Sorted by SMILES length (high to low): 10 of the compounds above
# | mol | Marburg entry inh | Cruzain Triton | LASV entry inh | Cruzain noTriton | 2A StopGo | RE007 growth inh | SARS PLP yeast | NS1 inh
8 | C[C@@H](C(=O)N1CCN(C(=O)OC(C)(C)C)CC1)n1cc(CCCN=C(NC(=O)OC(C)(C)C)NC(=O)OC(C)(C)C)nn1 | nt | nt | nt | nt | -19% | 6% | 2% | 1%
9 | CCOc1cc(N2CCOCC2)c(OCC)cc1NS(=O)(=O)c1cc(NC(C)=O)ccc1OC | -10%[46.1 µM] | nt | -12% | nt | -7% | 33% | 0% | 4%
2 | COc1ccc(CN2C(=O)c3ccccc3C2=O)cc1C(=O)OC(C)C(=O)NC(N)=O (stereo unspecified) | 1% | -5.1% | 9% | 1% | 0% | 16% | -4% | -3%
6 | O=C(C1CCN(S(=O)(=O)c2cnc[nH]2)CC1)N1CCn2c1nc1ccccc12 | ? | 3.4% | 0% | -11% | 13% | -6% | 2% | -4%
11 | CCOC(=O)c1cnc(-n2cc(C)cn2)nc1NCc1ccc2c(c1)OCO2 | ? | -2.0% | -1% | 29% | -3% | 11% | 11% | -32%
4 | CCCC(=O)N1CCc2cc(OC)c(OC)cc2C1COc1ccccc1OC (stereo unspecified) | nt | -1.5% | 5%[46.1 µM] | 10% | -21%&-2% | 11% | 0% | -4%
10 | CCOC(=O)c1cnn(-c2ncnc3sc(C)c(C)c23)c1N | 4% | 1.0% | 8% | 1% | ? | -11% | -1% | -2%
1 | c1ccc(N2CCN(c3cnc4ccccc4n3)CC2)cc1 | ? | -3.1% | ? | -16% | -8% | 0% | -36% | -68%
12 | O=C(Nc1ccc(Cc2ccncc2)cc1)c1ccco1 | -9% | -2.0% | -2% | 3% | 13% | -23% | 0% | -14%
5 | CC(=O)c1sc(-c2ccccc2)cc1N | 2%[46.1 µM] | nt | ? | nt | 13% | -16% | -2% | -4%

Next results:
# | mol | Marburg entry inh | Cruzain Triton | LASV entry inh | Cruzain noTriton | 2A StopGo | RE007 growth inh | SARS PLP yeast | NS1 inh
13 | COc1cccc(NC(=O)C2CC2(c2cccc(OC)c2)c2cccc(OC)c2)c1 (stereo unspecified) | -35% | -4.8% | -16% | 0% | 1% | 2% | -6% | 5%
14 | CCC(=O)Nc1cccc2ccccc12 | 2%[46.1 µM] | nt | 19% | nt | -4% | -16% | 0% | -2%
15 | CC1=CCC(C(=O)O)C(C(=O)O)C1 (stereo unspecified) | 6% | 2.5% | -1% | 4% | 0% | 13% | 5% | 3%
16 | CCN(C(=O)CCS(=O)(=O)c1ccc2c(c1)oc(=O)n2C)c1ccc(OC)cc1 | -3%&-3%[46.1 µM] | -0.6% | ? | 6% | -7%&-13% | -8% | -4% | -11%
17 | O=C(COc1ccc2ccc(=O)oc2c1)NCc1ccccn1 | nt | nt | nt | nt | 5% | 15% | 2% | 5%
18 | COc1ccc(N2CCN(C(=O)Cn3c(=O)c4cccn4c4cccnc43)CC2)cc1 | 0%[46.1 µM] | nt | 6%[46.1 µM] | nt | -9% | 6% | -1% | -10%
19 | Cc1ccc(CNC(=O)CC(C)CC2=NS(=O)(=O)c3ccccc3N2)cc1 (stereo unspecified) | nt | 1.8% | 3%[46.1 µM] | -6% | -11% | nt | nt | nt
20 | COc1cc(/C=N/Nc2ccccc2[N+](=O)[O-])cc(OC)c1O | 19%[46.1 µM] | nt | nt | nt | 4% | -20% | -1% | nt
21 | COc1ccc(S(=O)(=O)NNC(=O)C2Cc3c(ccc4ccccc34)O2)cc1 (stereo unspecified) | -9% | -0.2% | 1% | 2% | ? | 16% | 3% | 7%
22 | C=C(C)Cn1c(=O)c(NC(=O)c2ccccc2)c2n(c1=S)CCC2 | -2% | 0.7% | 3% | -21% | -19% | -5% | 0% | -6%
23 | CCC1CCCCN1CCCNC(=O)CSc1nc2nc(C)c(Cc3ccccc3Cl)c(C)n2n1 (stereo unspecified) | nt | nt | nt | nt | 5% | -9% | 1% | -6%
24 | COc1ccccc1/C=C/C(=O)NCC(=O)N/N=C(\CCC(=O)O)c1ccccc1 | 5%[46.1 µM] | nt | -24%[46.1 µM] | nt | -8% | -5% | -1% | nt
25 | Cc1cc(OCC(=O)Nc2ccc(CN3CCCCC3)cc2)ccc1Cl | -19%[46.1 µM] | nt | -1% | nt | -14% | 1% | 1% | -3%
26 | COc1ccc(C)cc1NC(=O)C1CCN(S(=O)(=O)c2c(C)noc2/C=C/c2ccco2)CC1 | 6%[46.1 µM] | -13% | 2%[46.1 µM] | -7% | -10% | nt | nt | nt
27 | CCC(=O)NC(=S)NNC(=O)COc1ccc(Br)cc1 | 3%[46.1 µM] | nt | 17% | nt | -2% | 3% | 0% | 4%
28 | CCOC(=O)C1=C(C)NC(SC)=NC1c1ccccc1 (stereo unspecified) | 4%[46.1 µM] | -3.1% | -11% | 0% | 0% | 4% | -3% | -6%
29 | O=C(CN1CCN(c2ccc(Cl)cc2)CC1)Nc1cccc(F)c1 | -24% | -14% | -15% | 2% | ? | -10% | 3% | -36%
30 | COc1ccc(-c2nnc(SCc3cc(C)cc(C)c3)o2)cc1 | -7% | -1.0% | -13% | -6% | -22% | -3% | -6% | -32%
31 | O=C(O)c1cccc(Nc2nc(C(F)(F)F)nc3ccccc23)c1 | ? | nt | 2% | nt | -14% | -16% | 0% | 5%
32 | O=C(CN1CCN(S(=O)(=O)c2ccc(Br)cc2)CC1)N/N=C/c1ccccc1C(=O)O | nt | nt | nt | nt | 2% | 2% | 0% | 3%
33 | O=C(COC(=O)c1ccc2c(c1)OCCO2)NCCC1=CCCCC1 | 26% | -0.7% | 20% | -7% | 0% | -11% | 2% | -18%
34 | Cc1nn(-c2ccccc2)c(C)c1/C=N/n1cnnc1 | 1%[46.1 µM] | nt | -3% | nt | -6% | -22% | -1% | nt
35 | CCCOc1ccc2ccccc2c1/C=C1\SC(=O)NC1=O | nt | nt | nt | nt | 15% | -26% | -26% | -121%
36 | Cc1ccc(NC(=O)Cc2ccc(-n3c(C)nc4cccnc43)cc2)c(Cl)c1 | nt | 8.9µM* | 7%[46.1 µM] | -2% | 16µM* | nt | nt | nt
37 | Cc1cc2cc(C#N)c(N3CCN(S(C)(=O)=O)CC3)nc2cc1C | 29% | -8.6% | -15% | 0% | -10% | 11% | -19% | 6%
38 | CCn1c(SCC(=O)N2CCN(c3ccccc3)CC2)nnc1-c1ccoc1C | ? | 4.0% | 0% | 9% | ? | -12% | 3% | 3%
39 | CCC(=O)N1CCc2cc(S(=O)(=O)CCC(=O)NCCc3ccccc3)ccc21 | -9% | 2.2% | -4% | -2% | -20% | 15% | 2% | -9%
40 | Cc1ccc(S(=O)(=O)NCC(=O)N(CC(=O)NCC2CCCO2)Cc2ccccc2Cl)cc1 (stereo unspecified) | -2%[46.1 µM] | nt | ? | nt | 28% | -8% | 3% | -21%
41 | Cc1cccc(NC(=O)Cn2c(=O)n(Cc3ccccc3)c(=O)c3sc4ccccc4c32)c1 | 3%[46.1 µM] | 0.2% | 23%[46.1 µM] | -4% | 0% | nt | nt | nt
42 | Cc1ccc(CNC(=O)CCC(=O)N2CC3CCCN3c3ccccc32)cc1 (stereo unspecified) | nt | -8.1% | 8%[46.1 µM] | -8% | -20% | nt | nt | nt
43 | NC(=O)C1(N2CCCCC2)CCN(C(=O)Nc2ccccc2C(F)(F)F)CC1 | 1% | -0.1% | -2% | -3% | -12% | 28% | 0% | 6%
44 | O=C(CSc1nc(-c2ccccc2)nc2cc(=O)[nH]n12)Nc1ccccc1 | nt | -0.8% | 14%[46.1 µM] | 0% | -9% | nt | nt | nt
